VACV mCherry inh = inhibitors of vaccinia virus infection (mCherry reporter signal) | 310,000 compounds, 0.63% hits | Vaccinia virus mCherry reporter infection, fluorescence; about a quarter of the inactives have no number | Potency, µM (series often up to 36.5 µM), inactives show at the highest dose activity change, negative = inhibition, actives largely listed as inhibitors | AID 720579; active = well fitted inhibition curve with a large enough effect; inconclusive = small, poorly fitted or top-dose-only effect; inactive = no such curve, though single readings can be large or run the other way; tested in A549 cells; note: nearly all actives have a fitted effect of over 35% in size; inactives centre near -10
VACV Venus inh = inhibitors of vaccinia virus (Venus reporter) | Vaccinia virus Venus reporter expression, fluorescence | Potency, µM (doses to about 36.5 µM), inactives show at the highest dose activity change, negative = inhibition, hits mostly inhibitors | 330,000 compounds, 0.46% hits; active means well fitted inhibition curve with a large enough effect; inconclusive means small, poorly fitted or top-dose-only effect; inactive means no such curve, though single readings can be large or run the other way; tested in A549 cells; note: nearly all actives have a fitted effect of over 30% in size; inactives centre near -10
Active calls of the source: *; i = inactive; ? = inconclusive; nt = no result given; [ ] = remark or other dose. % is set by controls: 0 for no effect and ±100 for the full control effect; potency is the fitted concentration of half-maximal effect. Random draw from the library; any-hit rate near 0.82%.

(1) COC(=O)C1=C(c2cccc(OCc3ccccc3)c2)C[C@@H]2CC[C@H]1N2C(=O)NCc1ccc(Br)cc1
(2) COc1ccc(/C=C/C(=O)OC2CCCCC2CN(C)C)cc1 (centres undefined)
(3) CC1(C(=O)NCc2ccc(F)c(F)c2)Cc2c(-c3ccc4c(c3)OCO4)ccnc2O1 (centres undefined)
(4) CSc1ccc(S(=O)(=O)Nc2ccc(F)cc2)cc1
(5) Cc1nc(N)sc1N=Nc1ccc(F)cc1
(6) COc1cc(C2C(C(=O)c3cccs3)=C(O)C(=O)N2c2cc(C)on2)ccc1O (centres undefined)
assay / compound	1	2	3	4	5	6
VACV mCherry inh	-23.8%	?	-10.3%	-16.2%	-11.2%	-22.0%
VACV Venus inh	?	-8.0%	?	-28.7%	-6.5%	-13.6%

(7) Cc1ccccc1-n1c(SC(C)C(N)=O)nnc1-c1cccnc1 (centres undefined)
(8) CCOc1ccc(CCNC(=O)CS(=O)(=O)Cc2nc(-c3cccc(Cl)c3)oc2C)cc1
(9) Cc1cccc(OCCNC(=O)c2cc(-n3cnnc3)ccc2Cl)c1
(10) CCOC(=O)C1CCCN(C(=O)CSc2nc(C)cc(C)n2)C1 (centres undefined)
(11) CC(C)(C)NC(=O)c1cnn2c(C(F)F)cc(-c3ccccc3)nc12
(12) O=C(COc1ccccc1Cl)N(Cc1ccco1)Cc1ccco1
assay / compound	7	8	9	10	11	12
VACV mCherry inh	-14.0%	-14.8%	i	-9.0%	-23.2%	1.9%
VACV Venus inh	-7.2%	-15.0%	-1.5%	-2.8%	-11.2%	-7.7%

(13) CCOC(=O)/C(N=Nc1ccc2c(c1)OCO2)=C(\C)O
(14) COc1ccc(-n2c(=S)[nH]c3ccc(C)cc3c2=O)cc1
(15) O=C1Nc2c(ccc(Cl)c2Cl)C(=O)C1(F)c1ccccc1 (centres undefined)
(16) Cc1cccc(OCc2nnc(SCC(=O)Nc3ccc(C)c(Cl)c3)o2)c1
(17) O=C1CCC(C(=O)Nc2ccccc2N2CCOCC2)=NN1
(18) O=C(Nc1ccc(Cl)c(C(F)(F)F)c1)NC1CC2CCCC(C1)N2Cc1ccccc1 (centres undefined)
assay / compound	13	14	15	16	17	18
VACV mCherry inh	-8.4%	-13.5%	?	-0.7%	i	?
VACV Venus inh	-3.9%	-4.1%	8.4%	-22.2%	8.4%	?

(19) COc1ccc(-c2ccc(C)cc2)cc1[C@H]1[C@H]2C=CC[C@@H](C)[C@@H]2C(=O)N1Cc1ccccc1
(20) COc1cc(CNC(=O)C2CC(O)CN2C(=O)Nc2ccccc2)cc(OC)c1OC (centres undefined)
(21) O=C(NCC(F)(F)F)[C@H]1O[C@@H](n2ccc(=O)[nH]c2=O)[C@H](O)[C@@H]1O
(22) CCOc1ccc(CN2C(=O)c3ccccc3Sc3ccc(C(=O)NC4CCC(C)CC4)cc32)cc1 (centres undefined)
(23) Cc1ccc(NC(=O)CC(=O)Nc2ccc(C)cc2)cc1
(24) COc1cc(/C=N/NC(=S)NCCN2CCOCC2)cc(OC)c1OC
assay / compound	19	20	21	22	23	24
VACV mCherry inh	-13.3%	-25.0%	-8.5%	1.1%	-25.3%	-3.2%
VACV Venus inh	-11.5%	0.0%	-3.3%	-12.4%	-6.4%	-3.7%

(25) N#CC1=C(N)Oc2[nH]c(=S)[nH]c(=O)c2C12C(=O)Nc1ccccc12 (centres undefined)
(26) Clc1cccc(-c2ccc(CNCCCN3CCOCC3)o2)c1
(27) O=C(NCc1ccccc1)c1[nH]c(C(F)(F)F)nc1-c1ccccc1
(28) O=[N+]([O-])c1ccc(CSc2ccc(S(=O)(=O)N3CCCCCC3)cn2)cc1
(29) CC(=O)c1ccc(-n2nnnc2SCC(=O)Nc2cccc(NC(=O)c3ccco3)c2)cc1
(30) CC(C)c1onc(C(=O)N2CCC3(CC2)OCCO3)c1[N+](=O)[O-]
assay / compound	25	26	27	28	29	30
VACV mCherry inh	-18.5%	-3.8%	0.7%	-29.0%	nt	i
VACV Venus inh	-5.1%	6.2%	-6.6%	4.0%	-16.2%	-15.3%

(31) O=C(NCCc1ccccc1)c1oc2ccccc2c1COc1ccccc1
(32) O=C(CN1C(=O)/C(=C2\SC(=S)N(C3CCS(=O)(=O)C3)C2=O)c2ccccc21)Nc1ccccc1 (centres undefined)
(33) CCOc1ccccc1Nc1sc(C(=O)c2ccc(Cl)cc2)c(N)c1C#N
(34) C#CCN(C(=O)c1cc(COc2cccc(C(F)(F)F)c2)on1)C1CCCCC1
(35) CCN(CC(=O)Nc1c(F)cccc1F)C(=O)c1ccc(-n2cncn2)c([N+](=O)[O-])c1
(36) CC(C)[C@H](NC(=O)CCCn1nnc2ccccc2c1=O)C(=O)O
assay / compound	31	32	33	34	35	36
VACV mCherry inh	-19.0%	-13.3%	-4.0%	-34.8%	-9.6%	i
VACV Venus inh	-3.0%	-0.2%	3.7%	-24.3%	-8.8%	-4.9%

(37) CN1CCN(c2ccc(C(N)=O)cc2[N+](=O)[O-])CC1
(38) CCOC(=O)N1CCN(C(=O)CSc2ncnc3ccccc23)CC1
(39) O=c1oc2c3c(ccc2c2ccccc12)OCN(Cc1ccc(Cl)cc1)C3
(40) CCOC(=O)c1c(NC(=O)c2cccs2)sc(C)c1CC
(41) COc1cc(C(=O)OCC(=O)Nc2ccc(OC(F)F)cc2)cc(OC)c1OC
(42) CCCCOc1ccccc1NC(=O)CC1Sc2ccccc2NC1=O (centres undefined)
assay / compound	37	38	39	40	41	42
VACV mCherry inh	-12.8%	?	-7.1%	-7.4%	i	?
VACV Venus inh	4.5%	-28.0%	-3.5%	-10.1%	-8.8%	?

(43) Cc1cc(C)c(C#N)c(Nc2ccccc2C)n1
(44) CCc1nc(NCCc2ccccn2)c2nnn(Cc3ccccc3F)c2n1
(45) CCOc1ccc(C(=O)Nc2ccc3nc(N4CCN(CC)CC4)cc(C)c3c2)cc1
(46) COc1cc([N+](=O)[O-])ccc1NC(=O)CCCOc1ccc(C)cc1
(47) NCCCP(=O)(O)CC1CCCCC1
(48) Cc1cc2c(=O)n(C)c(SCC(=O)Nc3cccc(O)c3)nc2s1
assay / compound	43	44	45	46	47	48
VACV mCherry inh	i	-10.5%	i	-6.6%	-8.6%	-6.5%
VACV Venus inh	-6.6%	?	-14.8%	-8.2%	-6.5%	-3.6%

(49) CCC[C@@H]1Cc2ccccc2N1C(C)=O
(50) CCc1ccc(-n2nc(C)c3c(C)cc(=O)n(CC(=O)Nc4ccc(F)cc4C)c32)cc1
(51) Cc1ccc(NCc2ccccc2)cc1
(52) C[C@@H]1CN([C@@H](C)CO)C(=O)CCCn2cc(nn2)CO[C@H]1CN(C)S(=O)(=O)c1ccc(-c2ccccc2)cc1
(53) O=C(COc1ccccc1)NNC1=NS(=O)(=O)c2ccccc21
(54) COc1ccc(S(=O)(=O)N2CCOCC2)cc1NC(=O)Cc1cccs1
assay / compound	49	50	51	52	53	54
VACV mCherry inh	i	-9.6%	-11.7%	-0.6%	-12.2%	-16.0%
VACV Venus inh	-2.8%	0.4%	-14.3%	-14.8%	-1.7%	-3.1%

(55) COc1ccc(C(C(=O)NC(C)(C)C)N(Cc2ccco2)C(=O)CCC(=O)Nc2ccccn2)cc1 (centres undefined)
(56) COc1ccc(-n2c(=O)[nH]c3cc(C(=O)NCCc4ccc(Cl)cc4)ccc3c2=O)cc1OC
(57) COc1ccc(-c2csc(NC(C)c3nc4cc(C(F)(F)F)ccc4n3CCOCCO)n2)cc1 (centres undefined)
(58) Cc1cc(C)c(Nc2nc3ccccc3n3c(C)nnc23)c(C)c1
(59) CC(C(=O)Nc1ccccc1Cl)c1ccc([N+](=O)[O-])cc1 (centres undefined)
(60) CCN1CCN(C(=O)C2CCN(S(=O)(=O)c3cccc4cccnc34)CC2)CC1
assay / compound	55	56	57	58	59	60
VACV mCherry inh	-9.0%	-16.3%	?	-16.0%	?	i
VACV Venus inh	-14.1%	-14.2%	?	-3.8%	4.9%	5.2%

Compound profiles, as listed above. Screens in order: VACV mCherry inh	VACV Venus inh
COc1ccc(-c2csc(NC(C)c3nc4cc(C(F)(F)F)ccc4n3CCOCCO)n2)cc1 (centres undefined) reads ?	?
CC(C(=O)Nc1ccccc1Cl)c1ccc([N+](=O)[O-])cc1 (centres undefined) reads ?	4.9%
Cc1cc(C)c(Nc2nc3ccccc3n3c(C)nnc23)c(C)c1 reads -16.0%	-3.8%
COc1ccc(C(C(=O)NC(C)(C)C)N(Cc2ccco2)C(=O)CCC(=O)Nc2ccccn2)cc1 (centres undefined) reads -9.0%	-14.1%

(further entries)
(61) CCOc1ccc(NC(=O)Cn2cnc3c(oc4ccccc43)c2=O)cc1
(62) Cc1[nH]c(C)c(S(=O)(=O)NCCc2ccc(S(N)(=O)=O)cc2)c1C(=O)N1CCCC1
(63) COc1cc(NC(=O)c2cc(-c3cccs3)on2)cc(OC)c1OC
(64) Cc1ccc(C2C3=C(CCCC3=O)OC3=C2C(=O)CCC3)cc1
(65) O=C(O)CC(CC(=O)O)(C(=O)O)c1ccccc1
(66) O=C(CNCC1(N2CCOCC2)CCCCC1)Nc1ccc(Cl)cc1
assay / compound	61	62	63	64	65	66
VACV mCherry inh	6.2%	i[7.34 µM]	?	-17.3%	i	-1.6%
VACV Venus inh	-11.6%	-0.5%[7.34 µM]	-18.1%	-10.4%	2.0%	-13.2%

(67) Cc1ccc(S(=O)(=O)N(CC(=O)Nc2ccc(F)cc2F)Cc2ccc(F)cc2)cc1
(68) Cc1nc2c(c(=O)n1CCC(C)C)c1nc3ccccc3nc1n2CC1CCCO1 (centres undefined)
(69) COc1ccc(CCNC(=O)c2ccccc2NS(=O)(=O)c2cc(C(=O)O)ccc2OC)cc1
(70) CC(C)[C@H](NC(=O)c1ccccc1)C(=O)NCCc1ccccc1
(71) CCc1ccccc1NC(=O)Cn1c(=O)n(CC2CCC(C(=O)NCCc3ccccc3)CC2)c(=O)c2ccccc21 (centres undefined)
(72) CCc1ccc(NC(=O)c2ccc(F)c(S(=O)(=O)NCc3ccc(Cl)c(Cl)c3)c2)cc1
assay / compound	67	68	69	70	71	72
VACV mCherry inh	-11.7%	i	i	i	-17.2%	-12.4%
VACV Venus inh	-7.7%	-1.0%	-4.0%	-1.7%	-17.5%	-18.5%

Numbers 67 to 68, reprinted for reference:
(67) Cc1ccc(S(=O)(=O)N(CC(=O)Nc2ccc(F)cc2F)Cc2ccc(F)cc2)cc1
(68) Cc1nc2c(c(=O)n1CCC(C)C)c1nc3ccccc3nc1n2CC1CCCO1 (centres undefined)
assay / compound	67	68
VACV mCherry inh	-11.7%	i
VACV Venus inh	-7.7%	-1.0%

(listing goes on)
(73) O=C(NNc1nc2cc3c(cc2s1)OCO3)c1ccccc1
(74) Cc1nn2c(=O)cc(CSc3nc4ccccc4[nH]3)nc2s1
(75) COc1cccc(Nc2nc(C)cc(C)c2C#N)c1
(76) c1ccc(-c2ccc(CN3C[C@@H]4C(c5ccccc5)C5(c6ccccc6)CC4(C5)[C@H]3c3ccccc3)cc2)cc1 (some centres undefined)
(77) COc1ccc(S(=O)(=O)N(Cc2cc3ccc(OC)cc3[nH]c2=O)CC2COCCO2)cc1 (centres undefined)
(78) CCOC(=O)N1CCN(c2cc(=O)n(-c3cccc(C)c3)c(=O)[nH]2)CC1
assay / compound	73	74	75	76	77	78
VACV mCherry inh	-29.7%	23.3%	-20.6%	-25.1%	nt	i
VACV Venus inh	-11.4%	-1.1%	-9.3%	10.0%	-4.5%	-7.8%

(79) O=c1[nH]nnc2cc(Cl)ccc12
(80) CC1NC(=S)N(Cc2ccccc2)C1=O (centres undefined)
(81) Cc1ccc2nc(SCC(=O)NCc3ccco3)c(C)cc2c1
(82) COc1cc(/C=N\NC(=O)c2cccc(Cl)c2)ccc1Oc1ccc([N+](=O)[O-])cn1
(83) CCOC(=O)c1ccc(NC(=O)C2CCCN(S(=O)(=O)c3cnc[nH]3)C2)cc1 (centres undefined)
(84) Cc1cc(N2CCOCC2)nc2ccc(NC(=O)C3CCCCC3)cc12
assay / compound	79	80	81	82	83	84
VACV mCherry inh	-16.6%	-1.1%	i	-16.0%	18.3%	-17.4%
VACV Venus inh	-4.7%	2.0%	-10.7%	-27.6%	-6.7%	-17.5%

(85) CN1CCCc2ccccc21
(86) O=C(c1sccc1-c1ccccc1)N1CCN(S(=O)(=O)c2ccccc2)CC1
(87) COc1cccc(-c2nc(NCc3cnc(C)cn3)c3ccccc3n2)c1
(88) C/C(=N\Nc1nc(N2CCOCC2)nc(N2CCOCC2)n1)c1ccc([N+](=O)[O-])cc1
(89) COc1ccccc1/C=C/C(=O)Nc1cccnc1
(90) CCN1CCN(CCCNC(=O)c2cc3c(=O)n(C)c4ccccc4c3s2)CC1
(91) COC(=O)c1ccccc1-n1c(CCC(=O)O)ccc1-c1ccc(F)cc1
assay / compound	85	86	87	88	89	90	91
VACV mCherry inh	-6.0%	-4.1%	-3.0%	1.8%	i	-7.1%	i
VACV Venus inh	-6.1%	-16.5%	4.8%	-13.1%	-7.9%	-5.3%	-15.1%
